Screens as filed in PubChem.
Bm FixLJ act: B. multivorans fixK reporter activation | B. multivorans fixK-promoter GFP reporter, 18 h; active compounds read high | z-score (no concentration beside the values) | hit rate 0.3% among 29,000 | AID 1918990;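 active = replicate mean overnight rise in green fluorescent reporter signal, 3 or more SD over negative controls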;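 also: score is relative to vehicle wells of the plate; 300 nL library stock went into each well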
Active calls of the source: *. Only part of the results is shown; the hit share may differ from the screen's.

SMILES	Bm FixLJ act
O=C(O)Cn1ccc2cc(S(=O)(=O)N3CCCCCC3)ccc21	0.64
COc1cccc(CNS(=O)(=O)c2ccc3c(c2)CCN3C(=O)C2CCC2)c1	-1.3
CCc1nn(CC(=O)NCc2cccc(OC)c2)c(=O)c2cc3cc(F)ccc3n12	-2.1
Cc1ccccc1Nc1c(-c2ccc(N3CCOCC3)cc2)nc2ccc(Br)cn12	-0.05
CCn1c(CNC(=O)c2ccc(OC)cc2)nnc1SCC(=O)Nc1ccccc1	0.05
Cc1sc(NC(=O)COc2ccc(C(C)(C)C)cc2)c(C(=O)OC(C)C)c1C	-1.6
COc1cccc(/C=C/c2nc(C#N)c(NCCc3ccccc3)o2)c1	-0.67
COCCCNC(=O)CSc1nc(-c2cccc(F)c2)[nH]c1-c1ccccc1	1.2
CCCCNc1nc2c(c(=O)n(Cc3ccc(Cl)cc3)c(=O)n2C)n1C	-1.1
N#Cc1cccc(N2CCN(Cc3ccc(-c4ccccc4C#N)o3)CC2=O)c1	-0.56
C=CCc1ccc(OCc2ccc(C(=O)Nc3ccc(NC(C)=O)cc3)o2)c(OC)c1	0.41
COc1ccc(C(=O)/C(Br)=C\C(=O)O)cc1	-0.9
CCc1ocnc1C(=O)Nc1ccccc1C(=O)N1CCCCC1C (configuration not stated)	-0.4
Cn1c(=O)cc(SCC(=O)N2CCN(c3ccccc3F)CC2)c2cc(Cl)ccc21	-1.6
Cc1ccc(-c2nc3cc(C(C)C)ccc3o2)cc1NC(=O)c1cc([N+](=O)[O-])ccc1N1CCOCC1	-0.05
CCC(=O)N1CCN(Cc2ccc(C(C)=O)cc2)C2CS(=O)(=O)CC21 (configuration not stated)	0.46
Cc1ccc(CN2C(=O)c3ccccc3CC2(C)C(=O)NC2CCCCC2)cc1 (configuration not stated)	-1.9
CCOCCCNC(=O)CN1C(=O)COc2ccc(S(=O)(=O)N3CCOCC3)cc21	-0.18
CCCc1cc(C(=O)NC(c2ccncc2)c2ccc(OC)cc2)no1 (configuration not stated)	0.69
Cn1c(Cn2cccn2)nnc1C1CCN(C(=O)c2ccc(N)nc2)CC1	-1
O=C(Cc1c(F)cccc1Cl)N1CCCN(C(=O)c2ccc[nH]c2=O)CC1	-1.6
COc1ccc(-c2cc(C(F)(F)F)nc(SCCC(=O)Nc3ccccc3F)n2)cc1	-1.2
Cn1c(N2CCOCC2)nc2cc(C(=O)N3CCN4CCCC4C3)ccc21 (configuration not stated)	0.36
O=S(=O)(Nc1ccc(Br)cc1)c1ccc2nc(-c3ccccc3)[nH]c2c1	-2.5
Cc1ccc(-c2nnn3c2nc(NCCc2ccccc2)c2ccccc23)cc1	-1.7

Next section
SMILES	Bm FixLJ act
CCOC(=O)Cn1c(=O)oc2cc(S(=O)(=O)N3CCN(c4cccc(Cl)c4)CC3)ccc21	-1.4
C=CCOc1cccc(C(=O)N2CC3CCC2CN(CC(=O)N(C)C)C3)c1 (configuration not stated)	0.7
Cc1noc(C)c1C(=O)Nc1cccc(-c2nncn2C)c1C	-1.1
O=C(NC1(C(F)(F)F)N=C(c2ccccc2)N(C2CCCCC2)C1=O)c1ccccc1F (configuration not stated)	-0.39
CCOC(=O)c1c(-c2ccccc2)oc2ccc(N(C(C)=O)S(=O)(=O)c3cc(C)ccc3C)cc12	-1.2
O=S(=O)(c1ccc(OC(F)(F)F)cc1)N1CCC(c2nnnn2-c2ccc(F)cc2)CC1	-1.2
CCOC(=O)N1CCc2c(sc3c2c(=O)n(-c2ccc(Cl)cc2)c(=O)n3Cc2cccc(C)c2)C1	-0.37
CC(C)c1nc(CN(C)C(=O)Nc2ccc(C#N)nc2)cs1	-1.2
COC(=O)c1ccccc1NC(=O)Cn1c(=O)n(-c2ccc(C)cc2)c(=O)c2ccccc21	-1.8
O=C(CCC1CCCC1)NC1CCOCC1Oc1ccccn1 (configuration not stated)	0.83
COc1ccc(CNC(=O)c2ccc(CSc3nc4ccncc4n3Cc3ccccc3F)cc2)cc1	-2.4
COc1cccc(/C=C/c2nc(C#N)c(N3CCCCCC3)o2)c1	-0.39
CC(C)n1cc(-n2ccnc2-c2ccc(OCC(=O)NCC3CCCO3)cc2)cn1 (configuration not stated)	-1.2
Cc1nc(SCCOc2ccccc2F)[nH]c(=O)c1Cc1ccccc1	0.42
COc1ncc(-c2ccc(C(C)N3CCOCC3)cc2)c(OC)n1 (configuration not stated)	-0.51
CC(C)(C(=O)O)c1cnc(N2CCOCC2)nc1N1CCOCC1	-3.3
Cc1ccc(S(=O)(=O)c2cn(CC(=O)Nc3ccccc3)c3cc4c(cc3c2=O)OCO4)cc1	-0.45
COCc1oc2ccc(NS(=O)(=O)c3ccc(C)cc3)cc2c1C(=O)OC	-1.1
CCOCCCn1c(=N)c(C(=O)NCC2CCCO2)cc2c(=O)n3cccc(C)c3nc21 (configuration not stated)	-1.9
COc1ccc(-n2c(=O)c3ccccc3n(Cc3cccc(C)c3)c2=O)cc1	0.12
CCOC(=O)c1[nH]c2c(c1Cc1ccccc1C)C(=O)CC(c1ccccc1)C2 (configuration not stated)	-0.86
COc1ccc(NC(=O)Cn2c(=O)n(-c3cccc(C)c3)c(=O)c3c2c2cc(C)ccc2n3C)cc1Cl	-0.33
CC(=O)N1CCc2cc(S(=O)(=O)NC(Cc3ccccc3)C(=O)NCc3ccccc3Cl)ccc21 (configuration not stated)	-2.6
COCCc1noc(CN(C)C(=O)Nc2c(C)nn(C)c2C)n1	0.88
CN(Cc1nc(-c2ccccn2)no1)C(=O)CCNC(=O)c1ccc(F)cc1	-1.4

New compounds follow.
SMILES	Bm FixLJ act
Cc1cc(C)n2nc(SCC(=O)Nc3ccccc3)nc2n1	0.28
CCc1cc2c(cc3c(=O)n(CC(=O)N4CCCCC4)ncn32)s1	1.1
COCCNS(=O)(=O)c1cc(C(=O)O)cc(-c2ccccc2)c1	-0.36
CCc1ccc(NC(=O)c2cc3c([nH]c2=O)CC(C)(C)CC3=O)cc1	-2.1
COc1ccc(CNC(=O)C(C)Sc2nc(-c3ccccc3)cc(C(F)(F)F)n2)cc1 (configuration not stated)	-0.63
CCOc1cc2sc(N3CCC(C(=O)Nc4ccccc4C(=O)OC)CC3)nc2cc1Br	0.36
COc1ccc(C2CC(=O)c3cc(-c4nc(-c5cccc([N+](=O)[O-])c5)cs4)c(=O)n(-c4ccccc4C)c3C2)cc1 (configuration not stated)	2.5
CC(C)c1ccc(NS(=O)(=O)c2ccc3[nH]cc(C(=O)NC4CCCCC4)c(=O)c3c2)cc1	-0.74
COC(=O)c1cc2oc3ccccc3c2n1Cc1nc(-c2ccccc2Cl)oc1C	-1.5
COc1ccc(C2=NC(c3ccccc3)=Nc3ccc(C)cc3N2)cc1	-0.44
Cc1cc(C)cc(NC(=O)C2CCN(S(=O)(=O)c3c(C)noc3/C=C/c3ccco3)CC2)c1	-0.67
Cc1ccc(Cn2nnc3sc4c(c3c2=O)CCC(C)C4)cc1 (configuration not stated)	-1.9
COc1ccc(Nc2oc(/C=C/c3ccc(F)cc3)nc2C#N)cc1	-0.42
O=C(O)CCC(=O)N1CCc2cc(S(=O)(=O)NCc3ccc(F)cc3)ccc21	-0.1
Cc1cc(C)n2nc(CNS(=O)(=O)c3ccccc3)nc2n1	1.2
COc1ccc(CNC(=O)c2cc3c(-c4ccccc4F)nn(C)c3s2)cc1	2
CCCCN1C(=O)C(O)(c2c(C)[nH]c3ccccc23)c2ccccc21 (configuration not stated)	-1.9
O=C(O)COc1ccc(CN2CCN3CCCCC3C2)cc1 (configuration not stated)	-0.82
COc1ccc(OC)c(NC(=O)c2cccc3c2C(=O)N(C2CCCCC2)C3)c1	-0.63
O=C(c1cnn2ccccc12)N1CC(CO)CC(CN2CCOCC2)C1 (configuration not stated)	-1.2
O=c1c2c(-c3ccc(Cl)cc3)ccnc2[nH]n1-c1ccccc1	-0.51
Cc1ccc2c(c1)c1c3n2CCN(C(=O)c2ccc(C(F)(F)F)cc2)C3CCC1 (configuration not stated)	-2.3
O=C(CCS(=O)(=O)c1nc(-c2cccs2)cc(C(F)(F)F)n1)Nc1ccc(OC(F)(F)F)cc1	0.12
O=C(CSc1nnc(-c2ccccc2Cl)o1)N1CCCc2ccccc21	-0.86
CCc1cccc(C)c1NC(=O)C1CCCN(S(=O)(=O)c2cccc3nsnc23)C1 (configuration not stated)	-0.7

The listing continues.
SMILES	Bm FixLJ act
CC(C)C(NC(=O)N1CCC(CCn2cccn2)CC1)C(=O)O (configuration not stated)	0.12
Cc1cccc(NC(=O)CCn2cnnn2)c1C	-2.5
Cc1c(Nc2ncccc2C(=O)O)cccc1C(F)(F)F	-0.59
CCSc1ncc(Cl)c(C(=O)N(Cc2ccccc2)c2ccc(OC)cc2)n1	2.2
Cc1ccc(C(=O)Nc2nc(-c3ccccc3)ns2)cc1	-2.3
Cc1ccc2nc3c(cc(C#N)c(=O)n3-c3nnc(SCc4ccccc4)s3)c(=O)n2c1	-0.12
COc1ccccc1C1CN(C(=O)CCN2CCN(C)CC2)CC1C(=O)O (configuration not stated)	1.4
CC[C@H]1OC(=O)[C@H](C)[C@@H](O[C@H]2C[C@@](C)(OC)[C@@H](O)[C@H](C)O2)[C@H](C)[C@@H](O[C@@H]2O[C@H](C)C[C@H](N(C)C)[C@H]2O)[C@](C)(O)C[C@@H](C)/C(=N\OCOCCOC)[C@H](C)[C@@H](O)[C@]1(C)O	-0.99
COc1ccc(C(=O)Oc2ccc(C3NC(=O)c4c(sc5c4CCN(C)C5)N3)cc2OC)cc1 (configuration not stated)	-2.1
CC(C)c1cccc(C(C)C)c1NC1=NS(=O)(=O)c2ccccc21	-1.5
CCCc1cc(C(=O)N(C)Cc2cc(-c3ccccn3)no2)ccn1	0.97
Cc1cc(Br)ccc1NC(=O)c1ccc(NS(=O)(=O)c2c(C)noc2C)cc1	-0.5
CCc1nc(CNC(=O)c2ccc(C#CC(C)(C)O)o2)cs1	0.92
CCOc1ccc(NC(=O)[C@H](Cc2ccccc2)N2Cc3ccccc3C2=O)cc1	-2.1
CCSc1nnc(NC(=O)c2cc(=O)c3cc(C)c(C)cc3o2)s1	-1.1
Cc1ccc(Cl)cc1Nc1sc(C(=O)c2ccccc2)c(N)c1S(=O)(=O)c1ccccc1	-0.99
COc1ccc(C(=O)Nc2ccc3nc(N4CCCCC4)cc(C)c3c2)cc1OC	0.67
CC(=O)c1ccc(NC(=O)c2ccc(NC(=O)CCS(=O)(=O)c3cccs3)cc2)cc1	-1.4
CCN(Cc1ccccc1)C(=O)CCc1c(C)nc2c(c(C)nn2-c2ccc(C)c(C)c2)c1C	-0.73
COc1cc(C(=O)Nc2cccc(OCc3cc(=O)n4c(C)csc4n3)c2)cc(OC)c1OC	-1.4
Cc1nc2ccccc2n1CCC(=O)Nc1ccc(Oc2nn[nH]n2)cc1	0.87
NC(=O)c1ccccc1NC(=O)Cn1nc(Cc2cccnc2)c2ccccc2c1=O	-0.45
COc1ccc(-c2nc3cc(C(C)C)ccc3o2)cc1NC(=O)c1ccc(C)c(Cl)c1	0.34
CCN1C(=O)C(Cc2nc3ccccc3c(=O)n2-c2ccc(OC)cc2)c2ccccc21 (configuration not stated)	-2.9
COc1ccc(CCNCc2c(C(=O)O)c(C)n(Cc3cccc(C)c3)c2C)cc1OC	-1.3

Continuation.
SMILES	Bm FixLJ act
O=C(Nc1ccc2oc(-c3ccncc3)nc2c1)c1ccccc1Cl	-0.58
COc1ccc(Br)cc1C(=O)Nc1ccc(-c2nc3cc(Cl)ccc3o2)cc1	-1.9
COCC(=O)Nc1ccc(NC(=O)C2CC=CCC2)cc1OC (configuration not stated)	-0.29
O=C(NC1CCCC1)c1ccc2c(c1)N(Cc1c(F)cccc1Cl)C(=O)c1ccccc1S2	1.7
CCC(C(=O)N1CCN(c2cc(Cl)ccc2C)CC1)n1nc(C)n2c(cc3occc32)c1=O (configuration not stated)	0.3
COc1ccc(CC(=O)NC2COCC2Cc2ccncc2)cc1 (configuration not stated)	0.32
Cc1ccc2c(=O)cc(C(=O)Nc3c(C(=O)c4ccccc4)oc4ccccc34)oc2c1	-0.45
Cc1cccc(N2CCN(C(=O)C3CCN(S(=O)(=O)c4cccs4)CC3)CC2)c1C	-0.67
Cn1ncc(Cl)c1C(=O)N1CCCC(c2cccc(C(=O)O)c2)C1 (configuration not stated)	-1.7
COc1ccccc1Oc1nc2c(C)cccn2c(=O)c1/C=C(\C#N)c1nc2ccccc2[nH]1	-1.4
CCOc1ccc(NC(=O)Cn2c(=O)n(Cc3ccccc3)c(=O)c3sc4ccccc4c32)cc1	-0.45
CCc1ccc(-n2c(=O)c3c4c(sc3n(Cc3cc(=O)n5c(C)cccc5n3)c2=O)CCC4)cc1	0.04
CCCCN(CCCNC(=O)c1cc(Nc2ccc(OC)cc2)nc2ccccc12)Cc1ccccc1	-1
CCOC(=O)COc1ccc(CC)cc1C(=O)c1ccn2nc(-c3ccccc3)cc2n1	0.56
Cc1ccccc1Nc1c(-c2cccc(N(C)C)c2)nc2ccc(Br)cn12	-0.88
COc1ccc2[nH]cc(CCNC(=O)CN3C(=O)CN(C)C3=O)c2c1	0.85
CCCCc1nc2ccccc2n1CC(=O)N(COCC)c1c(C)cccc1CC	-1.4

Compounds shown so far that contain a COOH group:
SMILES	Bm FixLJ act
O=C(O)Cn1ccc2cc(S(=O)(=O)N3CCCCCC3)ccc21	0.64
COc1ccc(C(=O)/C(Br)=C\C(=O)O)cc1	-0.9
CC(C)(C(=O)O)c1cnc(N2CCOCC2)nc1N1CCOCC1	-3.3
COCCNS(=O)(=O)c1cc(C(=O)O)cc(-c2ccccc2)c1	-0.36
O=C(O)CCC(=O)N1CCc2cc(S(=O)(=O)NCc3ccc(F)cc3)ccc21	-0.1
O=C(O)COc1ccc(CN2CCN3CCCCC3C2)cc1 (configuration not stated)	-0.82
CC(C)C(NC(=O)N1CCC(CCn2cccn2)CC1)C(=O)O (configuration not stated)	0.12
Cc1c(Nc2ncccc2C(=O)O)cccc1C(F)(F)F	-0.59
COc1ccccc1C1CN(C(=O)CCN2CCN(C)CC2)CC1C(=O)O (configuration not stated)	1.4
COc1ccc(CCNCc2c(C(=O)O)c(C)n(Cc3cccc(C)c3)c2C)cc1OC	-1.3
Cn1ncc(Cl)c1C(=O)N1CCCC(c2cccc(C(=O)O)c2)C1 (configuration not stated)	-1.7
